Assay outcomes (PubChem)
StopGo RLuc = FMDV 2A StopGo reporter, Renilla signal. 120,000 compounds, 0.32% hits. HEK cells with a luciferase reporter of 2A StopGo recoding. Potency, µM (series often up to 57.5 µM), for the others: top-dose signal change, negative = less light; active means well fitted falling curve with a large enough effect; inconclusive means small, poorly fitted or top-dose-only effect; inactive means no such curve, though single readings can be large or run the other way; note: nearly all actives have a fitted effect of over 55% in size; overnight with compound
2A firefly = FMDV 2A StopGo reporter, firefly signal | HEK cells with a luciferase reporter of 2A StopGo recoding | Potency, µM (highest dose often 57.5 µM), for inactives: top-dose signal change, negative = less light | 120,000 compounds, 0.23% hits; active = well fitted falling curve with a large enough effect; inconclusive = small, poorly fitted or top-dose-only effect; inactive = no such curve, though single readings can be large or run the other way; note: nearly all actives have a fitted effect of over 60% in size; overnight with compound
Active calls of the source: *; ? = inconclusive; [ ] = dose if it differs, or a comment. % is set by controls: 0 for no effect and ±100 for the full control effect; potency is the fitted concentration of half-maximal effect. Only part of the results is shown, so the mix of outcomes need not match the whole.

SMILES	StopGo RLuc	2A firefly
O=C(Cn1nc(-c2ccc(Cl)cc2)c2ccccc2c1=O)Nc1ccccc1	2%	12%
CCNC(C)C12CC3CC(CC(C3)C1)C2 (stereo not given)	4%	8%
Cc1cccn2c(=O)c(C(=O)NC(C)c3ccccc3)cnc12 (stereo not given)	-8%	-4%
Cc1ccc(NC(=O)c2cn3c4c(ccc(Cl)c4c2=O)OC(C)C3)cc1C (stereo not given)	-28%	-14%
COC(=O)c1ccc(C)c(NC(=O)c2csc(COc3ccc(C)cc3)n2)c1	-11%	40%[activator]
CCCCNS(=O)(=O)c1ccc2nc(-c3cccnc3)cc(C(=O)NCCC)c2c1	-7%	-13%
c1ccc2c(c1)Sc1ccccc1S2	9%	16%
CC(=O)Nc1cccc(OCc2ccccc2)c1	10%	82%[activator]
CCOCCn1c(-n2nc(C)cc2C)nc2c1c(=O)n(Cc1ccc(F)cc1)c(=O)n2C	-11%	-6%
CC1(C)CC(=O)C2=C(C1)N(c1cccc(C(F)(F)F)c1)C(=O)CC2c1cccs1 (stereo not given)	-2%	-7%
CCn1nc(C)c(CNC(=O)Nc2ccc(OC)cc2OC)c1C	-2%	6%
Cn1cccc1-c1cc2n(n1)CCC(=O)N2CCCC(=O)NCc1ccc(F)cc1	-18%	-20%
O=C1Cc2cc(-c3csc(Nc4ccccc4)n3)ccc2N1	-15%	68%[activator]
CN(Cc1ccco1)C(=O)NCc1ccc(F)cc1	1%	3%
O=S(=O)(NCc1ccnc(OCc2ccccc2)c1)N1CCOCC1	1%	17%
Cc1ccc2c(CN3CCCCC3C)cc(=O)oc2c1 (stereo not given)	-1%	28%
CCc1c(C(=O)c2[nH]c(C)c(C(C)=O)c2C)oc2ccc(F)cc12	?	?
CCc1ccc(CNC(=O)C2CCCN(S(=O)(=O)c3ccc4c(ccn4C)c3)C2)cc1 (stereo not given)	108%[activator]	9%
Fc1ccc(-c2ccc(CNCCSc3nnnn3-c3ccccc3)o2)cc1	-5%	11%
O=C(O)c1cc2c(c(S(=O)(=O)Nc3cccc(Cl)c3F)c1)CCC2	?	0%
O=C1NC2(CCCCC2)N(C(=O)c2ccccc2)C2=C1CCCC2	-4%	-9%
Cc1sc(NC(=O)c2ccc(Cl)c(S(=O)(=O)N3CCOCC3)c2)nc1-c1ccc(F)cc1	-2%	1%
CCCCOc1ccc(NC(=O)C(C)Oc2ccccc2OC)c2cccnc12 (stereo not given)	0%	0%
COc1ccc(CNC(=O)c2nccnc2N)cc1OC	9%	6%
C#Cc1cccc(NC(=O)Cc2c[nH]c3ccccc23)c1	30%[activator]	96%[activator]

Sorted by number of heavy atoms (smallest number first): part of the list above
SMILES	StopGo RLuc	2A firefly
O=S(=O)(NCc1ccnc(OCc2ccccc2)c1)N1CCOCC1	1%	17%
Cn1cccc1-c1cc2n(n1)CCC(=O)N2CCCC(=O)NCc1ccc(F)cc1	-18%	-20%
Cc1sc(NC(=O)c2ccc(Cl)c(S(=O)(=O)N3CCOCC3)c2)nc1-c1ccc(F)cc1	-2%	1%

Retrieved by structure from the list above, 4 records:
SMILES	StopGo RLuc	2A firefly
O=S(=O)(NCc1ccnc(OCc2ccccc2)c1)N1CCOCC1	1%	17%
CCOCCn1c(-n2nc(C)cc2C)nc2c1c(=O)n(Cc1ccc(F)cc1)c(=O)n2C	-11%	-6%
CC(=O)Nc1cccc(OCc2ccccc2)c1	10%	82%[activator]
Cn1cccc1-c1cc2n(n1)CCC(=O)N2CCCC(=O)NCc1ccc(F)cc1	-18%	-20%

(more compounds)
SMILES	StopGo RLuc	2A firefly
Cc1c(Cl)cccc1NC(=O)Cn1c(=O)nc(-c2ccccc2)c2ccccc21	-3%	-1%
CCOC(=O)c1cc2c(=O)n3ccccc3nc2n(CC2CCCO2)c1=NC(=O)c1ccccc1F (stereo not given)	0%	-13%
CCC1c2ccsc2CCN1C(=O)CC(c1ccccc1)c1ccccc1 (stereo not given)	0%	-15%
CC(=O)Nc1ccc(NC(=O)c2cc(-c3ccc4c(c3)OCCO4)on2)cc1	10%	186%[activator]
CCOc1ccc(C(=O)NC(C)c2cc(C)ccc2C)cc1OC (stereo not given)	-20%	-5%
Cc1nn(C)c2c1c(-c1ccccc1)cc(=O)n2CC(=O)NC(C)C	10%	2%
Cc1ccc(C)c(N(C)C(=O)Cn2nc(Cc3ccncc3)c3ccccc3c2=O)c1	11%	1%
CC(C)(C)C1CCc2nc(NC(=O)Cc3ccc(Cl)cc3)sc2C1 (stereo not given)	6%	26%
O=C(c1ccc(CS(=O)c2ccccc2Cl)o1)N1CCN(c2cccc(Cl)c2)CC1 (stereo not given)	-40%	?
Cc1cccc(CNS(=O)(=O)c2ccc3[nH]c(=O)ccc3c2)c1	7%	-8%
Cc1c(Cl)cccc1NC(=O)CCS(=O)(=O)c1ccc2c(c1)CC(=O)N2C	-5%	-1%
COc1cccc(-n2cnc3c2NC(=O)CC3c2ccsc2)c1 (stereo not given)	2%	123%[activator]
CCCn1c(SCc2nc(-c3cc(OC)ccc3OC)no2)nnc1-c1ccc(Cl)cc1	23%	-11%
CCOC(=O)N1CCN(c2cc(C(=O)O)c3cc(NC(=O)CC(C)C)ccc3n2)CC1	-11%	-4%
O=C(O)CNC(=O)C1CCOCC1	-12%	4%
Cc1ccc2nc(N3C(=O)C(O)=C(C(=O)c4ccco4)C3c3cccc(O)c3)sc2c1 (stereo not given)	5%	93%[activator]
CCOc1cc(CN(CC(=O)NC(=O)NC)C2CC2)ccc1OC(F)F	-11%	-10%
CSc1ccc(/C=C/C(=O)Nc2cc(F)ccc2F)cc1	19%	34%[activator]
CCOC(=O)c1ccc(NC(=O)CN2Cc3ccccc3C2=O)cc1	8%	-23%
CCCNc1c(NC(=O)NCC2CCCO2)c(=O)oc2ccccc12 (stereo not given)	12%	19%
Cc1cccc(NS(=O)(=O)c2cc(NC(=O)Cc3n[nH]c(=O)c4ccccc34)ccc2C)c1	158%[activator]	-15%
O=C(O)c1ccc2[nH]cc(CCCCN3CC=C(c4ccccc4)CC3)c2c1	1%	-5%[11.5 µM]
CCOc1ccccc1NC(=O)Cc1nc(-c2ccccc2)oc1C	8%	6%
COC(=O)c1ccc2c(c1)sc(=NC(=O)c1ccc(S(=O)(=O)N3CCCCC3)cc1)n2C	7%	0%
CN1CCN(C(=O)c2ccc(CNC(=O)c3cc(=O)[nH]c4ccccc34)cc2)CC1	-6%	-4%

More entries
SMILES	StopGo RLuc	2A firefly
Cc1cccc(NC(=O)c2c(NC(=O)C(F)(F)F)sc3c2CCCCC3)c1	0%	?
CCOc1ccc(CCNC(=O)c2ccc3c(c2)c(C)c(C)n3Cc2ccccc2)cc1OCC	-16%	-15%
CCC(=O)N1CCc2cc(Br)cc(S(=O)(=O)CCC(=O)Nc3cccc(Cl)c3)c21	0%	-28%
COc1ccc(-c2noc(N(c3ccc(F)c(Cl)c3)c3nc(-c4ccc(OC)c(OC)c4)no3)n2)cc1OC	-10%	-4%
O=C1NC2(CCCC2)C(=O)N1Cc1coc(-c2cccc(F)c2)n1	-17%	35%[activator]
O=C(Nc1cccc(C(F)(F)F)c1)c1noc2c1CCCC2	6%	110%[activator]
COc1ccc(C)c2sc(N(Cc3cccnc3)C(=O)c3ccc(S(=O)(=O)N(C)C)cc3)nc12	-5%	-4%
CNC(=O)NC(=O)CCN(C)Cc1ccc(C(C)C)cc1	-2%	13%
COc1ccccc1C(C)N(C)C(=O)CCn1ccc2ccccc21 (stereo not given)	39%[activator]	-20%
CC(Oc1ccc(C(F)(F)F)cc1)C(=O)NC1(C#N)CCCCC1 (stereo not given)	21%	5%
CN(Cc1ccc2c(c1)OCO2)Cc1nc(N)nc(Nc2ccc(Cl)cc2)n1	-12%	-9%
CC(SC(C)c1ccccc1Cl)C(=O)NC(N)=O (stereo not given)	-4%	-16%
Cc1ccc(Sc2ccc(N3CCCC(C(=O)Nc4ccc(Cl)cc4)C3)nn2)cc1 (stereo not given)	24%	16%
Cc1ccc(NC(=O)c2cc(C)nc3c2c(C)nn3-c2cccc(Cl)c2C)c(C)c1	-5%	0%
O=C(Nc1ccccc1F)Nc1ncc(Cl)cc1Cl	5%	27%
COc1cccc(CN(C)CC(O)COc2c(C)cccc2C)c1OC (stereo not given)	-7%	-13%
O=C(Nc1cccc(-c2nc3ccccc3o2)c1)c1ccc(-c2ccc(Br)cc2)o1	-6%	-6%
C=CCOc1cccc2[nH]c(C(=O)O)cc12	9%	0%
N#Cc1ccc(NCC(=O)Nc2ccccc2)cc1	19%	110%[activator]
O=C(Nc1ccccc1Cc1ccccc1)c1cnc2ccccc2n1	39%[activator]	79%[activator]
Cc1nc2nncn2c(Nc2ccc(F)cc2)c1C	?	?
CCN(CC)C(=O)Cn1cc(SCC(=O)Nc2ccc(C)cc2)c2ccccc21	26%	2%
Cc1ccccc1C(=O)N(Cc1ccco1)C1CC1	-6%	-6%
COC(=O)c1cc(NC(=O)CC2Sc3ccccc3NC2=O)cc(C(=O)OC)c1 (stereo not given)	0%	0%
Cc1ccccc1OCCN(C)C(=O)NCc1cccc(Cl)c1	35%[activator]	57%[activator]

(further entries)
SMILES	StopGo RLuc	2A firefly
CCCc1ccc(C(NC(=O)Cn2c(=O)c3c(ncn3C)n(C)c2=O)C(C)C)cc1 (stereo not given)	-8%	2%
CCOC(=O)Cn1c(=O)n(CC2CCCO2)c2nc(-c3cc(OC)ccc3OC)nc(C(N)=O)c21 (stereo not given)	-4%	1%
CCOc1ccc(N(C(=O)Cn2nnc3ccccc32)C(C(=O)NCc2ccccc2)c2ccc(OC)cc2)cc1 (stereo not given)	-1%	-15%
COc1ccccc1-c1coc2cc(OC(=O)C(C)C)ccc2c1=O	1%	0%
Cc1cc(=O)oc2cc(OCC(=O)Nc3c(C(C)C)cccc3C(C)C)ccc12	7%	-15%
CC(C)(C)C1CCCCC1NC(=O)c1ccc(Cl)nc1 (stereo not given)	23%	10%
CCCC(C)c1nnc(NC(=O)C2CCN(C(=O)c3ccccc3F)CC2)s1 (stereo not given)	1%	4%
COCC(C)NC(=O)CSc1nc(-c2ccc(OC)c(OC)c2)cc(C(F)(F)F)n1 (stereo not given)	6%	7%
COc1ccc2c(c1)c(N1CCCC1=O)c(C(=O)Nc1cc(C)c(Cl)cc1OC)n2C	-16%	-10%
Cc1cccc(NC(=S)Nc2ccc(N(C)C)cc2)c1	95%[activator]	219%[activator]
COc1cc(CNC(=O)c2ccccc2-c2nc(-c3ccc(F)cc3)no2)cc(OC)c1OC	42%[activator]	13%
CCc1ccc2oc(=O)cc(CN3CCN(CC(=O)NC4CCCCC4)CC3)c2c1	3%	4%
O=C(Nc1cccc(F)c1)c1cnc2sc(N3CCCC3)nn2c1=O	-13%	-1%
CCS(=O)(=O)N1CCc2cc(C(=O)Nc3ccc(OC)c(Cl)c3)ccc21	?	-13%
CCOC(=O)C[N+](C)(C)CCOC1CC2CCC1(C)C2(C)C (stereo not given)	13%	15%
CCN(CC)CCNC(=O)C(=O)Nc1c2c(nn1-c1ccc(F)cc1)CSC2	-16%	-18%
CCCOc1ccccc1Oc1ncccc1CNC(=O)Nc1cccnc1	3%	12%
CCCCC(=O)Nc1nnc(S(=O)(=O)N(CC)c2cc(C)cc(C)c2)s1	-2%	-14%
COc1cc(C(=O)OCC(=O)NC(C)C(C)C)cc(Cl)c1OC (stereo not given)	-10%	-1%
COc1ccccc1NC(=O)c1c(C)cc(C)nc1SCC(=O)NCc1ccccc1	70%[activator]	6%
COC(=O)c1cc2oc3ccccc3c2n1Cc1nc(-c2ccc(OC)cc2)oc1C	-11%	-1%
CCNC(=O)C(=O)NCCc1c[nH]c2ccccc12	-2%	-1%
CC(C)OCCCNc1nc2ccccc2nc1NS(=O)(=O)c1ccccc1	28%	0%
COc1ccccc1NC(=O)c1nn(C)c2c1CS(=O)(=O)c1ccccc1-2	-4%	-9%
O=C(NCc1ccccc1F)c1cc(S(=O)(=O)C2CCS(=O)(=O)C2)ccc1F (stereo not given)	-6%	0%

Structural class, the entries above with a thiophene ring, fused or not.
SMILES	StopGo RLuc	2A firefly
CC1(C)CC(=O)C2=C(C1)N(c1cccc(C(F)(F)F)c1)C(=O)CC2c1cccs1 (stereo not given)	-2%	-7%
CCC1c2ccsc2CCN1C(=O)CC(c1ccccc1)c1ccccc1 (stereo not given)	0%	-15%
COc1cccc(-n2cnc3c2NC(=O)CC3c2ccsc2)c1 (stereo not given)	2%	123%[activator]
Cc1cccc(NC(=O)c2c(NC(=O)C(F)(F)F)sc3c2CCCCC3)c1	0%	?

(more compounds)
SMILES	StopGo RLuc	2A firefly
CCN(Cc1nc(-c2ccc(OC)c(OC)c2)no1)S(=O)(=O)c1ccc(OC)cc1	1%	-15%
CCOC(=O)c1c(Nc2ccc(F)cc2)nnc(-c2ccccc2)c1-c1ccccc1	-3%	-2%
Cc1ccc(-c2ccc(=O)n(Cc3cc(C)ccc3C)n2)cc1	?	-25%
N#Cc1ncn(CCC(=O)Nc2c(Cl)cccc2Cl)n1	-8%	-4%
COC(=O)c1ccc(NC(=O)CN(C)S(=O)(=O)c2ccc(Br)s2)cc1	19%	-8%
CC(C)CC(NS(=O)(=O)c1ccc2c(c1)oc(=O)n2C)C(=O)NCc1ccccc1Cl (stereo not given)	-8%	-21%
CCC(=O)c1sc(Nc2cc(Cl)ccc2C)nc1N	2%	24%
O=C(/C=C/c1ccc(O)cc1)c1cccc(Br)c1	35%	60%[activator]
Cc1ccc(Cl)cc1Nc1nn2c(=O)c3ccc(C(=O)NC4CCCCC4)cc3nc2s1	-9%	-13%
COCC(C)NS(=O)(=O)c1ccc(N2CCCCS2(=O)=O)cc1 (stereo not given)	-10%	-8%
Cc1ccc(-c2noc(-c3cccnc3NC(C)c3ccccc3)n2)cc1 (stereo not given)	3%	22%
